Assay outcomes deposited in PubChem by several laboratories.
CBX7 AlphaScr: inhibitors of human CBX7 binding to H3K27me3 peptide | normalised signal (fraction of DMSO) (test concentration not listed) | AlphaScreen His6-CBX7 / biotin-H3K27me3 peptide binding; hits give low values | O95931 | 66,000 compounds, 1.1% hits; in the data active means normalised signal below about 0.5;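 further: 100 nL library stock added to about 20 µL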
Target sequence (O95931 whole entry, looked up): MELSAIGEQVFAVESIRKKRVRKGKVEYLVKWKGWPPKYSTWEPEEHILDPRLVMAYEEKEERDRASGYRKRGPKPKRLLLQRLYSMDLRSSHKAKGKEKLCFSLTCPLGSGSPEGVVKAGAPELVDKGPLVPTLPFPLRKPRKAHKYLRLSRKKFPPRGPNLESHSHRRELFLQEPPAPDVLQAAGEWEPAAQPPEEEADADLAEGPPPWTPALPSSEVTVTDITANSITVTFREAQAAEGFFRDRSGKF
CBX7 AlphaScr z-score: also measured in CBX7 AlphaScr; calls as there; z-score; measured here: z-score of CBX7 signal; some inactives read as strong as hits; reference of the scale not given here;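 same signal on another scale; lower means less binding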
Active calls of the source: *.

item	smiles	CBX7 AlphaScr	CBX7 AlphaScr z-score
1	Cc1ccc(N2CC(c3nc4ccccc4n3CCOc3ccccc3C)CC2=O)cc1C (stereo not drawn)	0.856	-3.28
2	Cc1cc(NC(=O)c2nccnc2C(=O)O)ccc1Br	0.509	-6.31
3	Cc1nc2cc(NCc3ccccc3O)ccc2n1C	1.13	0.557
4	Cc1c(C(=O)Nc2ccc(F)cc2F)sc2ncn(CC(=O)N3CCC(C)CC3)c(=O)c12	0.991	-0.0977
5	CCOC(=O)N1CCC(Nc2c(N3CCN(c4ccccc4F)CC3)c(=O)c2=O)CC1	0.822	-2.13
6	Cc1cccc(CN2CCN(CC(=O)NCc3ccc4c(c3)OCO4)C2=O)c1	1.06	2.69
7	COc1ccc(S(=O)(=O)Nc2ccc(-c3cn4cccc(C)c4n3)cc2)cc1	1.07	1.03
8	Cc1ccc(NC(=O)C2CCCN(S(=O)(=O)c3cccnc3)C2)cc1 (stereo not drawn)	0.944	-1.88
9	CCN1CCN(Cc2c(C)[nH]c3c(Cl)cccc3c2=O)CC1	1.02	0.355
10	COc1ccc(NC(=O)CC2C(=O)N(c3ccccc3)C(=O)N2CCc2sccc2C)cc1 (stereo not drawn)	1.01	0.252
11	COc1ccc(C2Nc3ccccc3NC3=C2C(=O)NC3)cc1 (stereo not drawn)	0.949	-0.979
12	COc1cccc(OC)c1C(=O)Nc1ccc(C)cc1Br	0.974	-0.045
13	Cc1[nH]c2c(Cl)c(Cl)ccc2c1CCNC(=O)Cn1nc(C)c2ccccc2c1=O	1.08	1.37
14	CN(CC(=O)NCc1ccccc1)S(=O)(=O)c1cnc[nH]1	1.14	1.22
15	Cc1ccc(C2CC(C(F)(F)F)n3nc(C(=O)NCCCn4ccnc4)cc3N2)cc1 (stereo not drawn)	0.832	-0.168
16	Cc1ccc(S(=O)(=O)c2nc(-c3ccc(F)cc3)oc2N2CCOCC2)cc1	1.01	0.357
17	COc1ccc(-c2cc(C(F)(F)F)nc(NCC3CCCO3)n2)cc1 (stereo not drawn)	1.23	9.19
18	CCCNS(=O)(=O)c1ccc2c(c1)CCN2C(C)=O	1.03	0.985
19	COc1ccc(NC(=O)C2CCCN2S(=O)(=O)c2ccc3c(c2)CCC(=O)N3)cc1 (stereo not drawn)	0.994	-0.112
20	Cc1ccccc1-c1nc(CN2CCCC(C(=O)NCC3CCCO3)C2)c(C)o1 (stereo not drawn)	0.885	-0.157
21	CC(C(=O)NCc1ccccc1)C1Sc2ccccc2N(Cc2ccc(F)cc2Cl)C1=O (stereo not drawn)	1.07	1.97
22	COc1ccc(C(=O)Nc2ccc(Cl)cn2)cc1Br	0.981	-0.125
23	O=C(Nc1ccc(Br)cc1)C(Cc1ccccc1)N1C(=O)c2ccccc2C1=O (stereo not drawn)	1.03	0.111
24	c1ccc(Nc2nc(-c3ccncc3)cs2)nc1	0.869	-1.41
25	CCOC(=O)N1CCN(C(=O)c2cc3c(s2)-c2ccccc2OC3)CC1	1.05	2.63
26	CCn1cc(C(=O)N(C)c2cc(C)ccc2OC)c2cc(OC)c(OC)cc2c1=O	1.13	0.529
27	CCOc1ccc2nc(C(=O)Nc3ccc(Br)cc3)sc2c1	1.13	1.62
28	Cc1ccc(S(=O)(=O)C2(C(=O)NCc3ccc4c(c3)OCO4)CC2)cc1	1.09	1.73
29	CCCCNC(=O)CCn1nc(-c2ccccc2)c2ccccc2c1=O	1	0.05
30	Cc1ccc2c(c1)NC(=O)C(CC(=O)Nc1cccc(C(F)(F)F)c1)O2 (stereo not drawn)	1.05	1.88
31	CCOC(=O)c1oc2ccccc2c1NC(=O)c1ccc(F)c(F)c1	1.15	5.55
32	CN1CCN(CCN2CCn3c2nc2ccccc23)CC1	1.01	0.239
33	Cc1ccc2cc(CCNC(=O)CCC3CCCC3)c(=O)[nH]c2c1	0.843	-2.03
34	Cc1ccc2c(c1)C1CN(C)CCC1N2C(=O)Cn1nnc(-c2ccccc2C)n1 (stereo not drawn)	1.06	0.908
35	O=C(NC1CCCc2ccccc21)C1CCCN(c2nc3ccccc3[nH]2)C1 (stereo not drawn)	0.772	-2.63
36	O=C(c1ccccc1Cl)N1CCN(c2ccc3nnc(-c4ccc(F)cc4)n3n2)CC1	1.07	1.24
37	CCCCCc1nnc(NC(=O)c2ccccc2)s1	1.01	0.0696
38	COc1ccccc1Nc1nc(-c2c(C)nc3ccccn23)cs1	0.96	-0.0472
39	CC(CC(=O)NCCc1ccc(S(N)(=O)=O)cc1)CC1=NS(=O)(=O)c2ccccc2N1 (stereo not drawn)	1.07	0.792
40	CN(C)CCNC(=O)CN1C(=O)CCSc2ccccc21	1.02	0.781
41	COc1ccc(NC(=O)Cn2cnc3sc(C)cc3c2=O)cc1Cl	1	0.2
42	Cc1nn(CC(=O)Nc2ccccn2)c(=O)c2ccccc12	1.03	1.18
43	COc1ccccc1Cn1c(=O)c(C)nc2cccnc21	0.869	-1.76
44	Clc1ccc(-c2nnc(SCc3ccccc3)o2)c(Cl)c1	1.17	3.64
45	Cc1ccc(C)c(-c2csc(NC(=O)c3ccc(S(=O)(=O)N4CCCCC4)cc3)n2)c1	0.989	-0.181
46	O=C(Cn1ncc2c1-c1ccccc1OC2)Nc1cccnc1Cl	1.17	0.987
47	CC(C)=C1C2C=CC1C1C(=O)N(c3c(C)cc(C)cc3C)C(=O)C21 (stereo not drawn)	0.988	-0.152
48	O=S(=O)(Nc1nc2ccccc2nc1NCCC1=CCCCC1)c1ccc(Br)cc1	1.05	1.39
49	CCn1c(C(=O)N2CCCC(C(=O)N3CCN(c4cccc(C)c4)C(C)C3)C2)cc2sccc21 (stereo not drawn)	0.599	-1.76
50	O=C(NCC1CCCO1)c1cc2c(s1)-c1ccccc1OC2 (stereo not drawn)	1.08	4.08

(cont.)
item	smiles	CBX7 AlphaScr	CBX7 AlphaScr z-score
51	O=C(Nc1ccc(Cl)cc1)N1CCN(c2ccc3nnc(-c4ccc(F)cc4)n3n2)CC1	0.893	-1.49
52	CC1(C)CC(=O)N(CC(=O)N2CCc3ccccc32)c2ccccc2S1	1.1	3.01
53	COc1ccccc1NC(=O)CSc1nnc(Cc2cc(=O)[nH]c(=O)[nH]2)n1-c1ccccc1	1.05	1.73
54	Cc1ccccc1-n1nc2c(c1NC(=O)c1cccc(Cl)c1)CSC2	1.02	0.305
55	Cc1sc2ncn(CC(=O)Nc3ccccc3F)c(=O)c2c1S(=O)(=O)N1CC(C)CC(C)C1 (stereo not drawn)	1.13	1.31
56	Cc1ccc2nc(NS(=O)(=O)c3ccc(Cl)cc3)c(Nc3c(C)n[nH]c3C)nc2c1	0.965	-0.876
57	COC(=O)c1c(NC(=O)CCC(=O)O)sc(Cc2ccccc2)c1C	0.948	-0.65
58	Cc1cc(N2CCCCC2)nc2ccc(NC(=O)c3cnccn3)cc12	0.882	-2.15
59	Cc1cc(C(=O)NCCCN2CCCC2)nn1-c1ccccc1	0.968	-0.81
60	CC(NC(=O)c1cnn2c(C(F)(F)F)cc(-c3cccs3)nc12)c1ccccc1 (stereo not drawn)	1	0.0844
61	COc1ccc(OC)c2[nH]c(=O)c(CCNC(=O)CCC3CCCCC3)cc12	1.03	1.31
62	Cc1cc(Nc2cccc(C(=O)O)c2C)n2ncnc2n1	0.941	-0.742
63	COc1ccccc1CNC(=O)CN1C(=O)COc2ccc(S(=O)(=O)N3CCCCCC3)cc21	1.11	1.36
64	Cc1ccc(C2=NN(CCC(=O)NCc3ccc4c(c3)OCO4)C(=O)CC2)cc1	0.965	-0.479
65	CCN(CC)S(=O)(=O)c1ccc2c(c1)N(CC(=O)NCc1ccc(F)cc1)C(=O)CO2	0.992	-0.228
66	CCCc1cc(C(=O)Nc2ccccc2C(F)(F)F)no1	1.31	5.27
67	CCN1CCN(C(c2cccs2)C(C)NC(=O)c2ccc(N(C)C)cc2)CC1 (stereo not drawn)	1.01	0.142
68	COc1ccc(N(CC(=O)NCc2ccccc2)S(=O)(=O)c2c(C)nn(C)c2C)cc1	1.06	0.435
69	COc1ccc(NC(=O)[C@H](CSCc2ccccc2)N2Cc3ccccc3C2=O)c(OC)c1	0.801	-4.53
70	CCOC(=O)c1cnc2ccc(OC)cc2c1Nc1cccc(C)c1C	0.725	-1.21
71	Cc1cc(N2CCN(C)CC2)nc2ccc(NC(=O)C3CCC(C(C)(C)C)CC3)cc12 (stereo not drawn)	0.879	-2.19
72	N#Cc1cccc(NC(=O)Cn2nc(Cc3ccncc3)c3ccccc3c2=O)c1	1.2	2.06
73	COc1nccnc1NS(=O)(=O)c1ccc(NC(=O)c2ccccc2Cl)cc1	0.829	-1.96
74	Cc1cccc(NC(=O)C2CCCN(S(=O)(=O)c3c(C)noc3C)C2)c1 (stereo not drawn)	1	-0.00301
75	COc1cccc(C(=O)Nc2cccc(-c3nc4ncccc4o3)c2)c1	0.973	-0.186
76	O=C(NCc1ccccc1)C(=O)Nc1ccc(Oc2ccccc2)cc1	1.03	0.897
77	Cc1nnc(NC(=O)c2cncc(Br)c2)s1	1.07	1.13
78	O=C(CN1CCN(Cc2cccc(Cl)c2)C1=O)N1CCOCC1	1.06	0.853
79	CCOC(=O)c1cn(-c2ccccc2)nc1-c1cccnc1	0.927	-0.785
80	Cc1c(C(=O)NC(C)C)sc2ncn(CC(=O)N3CCC(C)CC3)c(=O)c12	1.07	0.649

Retrieved one by one from the list above (three):
item	smiles	CBX7 AlphaScr	CBX7 AlphaScr z-score
75	COc1cccc(C(=O)Nc2cccc(-c3nc4ncccc4o3)c2)c1	0.973	-0.186
74	Cc1cccc(NC(=O)C2CCCN(S(=O)(=O)c3c(C)noc3C)C2)c1 (stereo not drawn)	1	-0.00301
76	O=C(NCc1ccccc1)C(=O)Nc1ccc(Oc2ccccc2)cc1	1.03	0.897

The list continues.
item	smiles	CBX7 AlphaScr	CBX7 AlphaScr z-score
81	CC(=O)Nc1ccc(Nc2nnc(-c3ccc(C)c(S(N)(=O)=O)c3)c3ccccc23)cc1	0.807	-2.18
82	COc1cccc(NC(=O)C2CCN(S(=O)(=O)c3cccnc3)CC2)c1	0.978	-0.578
83	COc1ccc(-n2nnc3c(=O)n(CC(=O)Nc4ccc(C)cc4C)cnc32)cc1	0.91	-1.72
84	CCC1CCCCN1S(=O)(=O)c1ccc2[nH]c(=O)cc(C(=O)NC3CC3)c2c1 (stereo not drawn)	0.815	-2.02
85	CC1CC(C)CN(CCCNC(=O)CN2N=C(c3ccccc3)CCC2=O)C1 (stereo not drawn)	1	0.0589
86	COC(=O)c1c(C)[nH]c(C)c1-c1ccc(OC)cc1	0.773	-4.49
87	CCC(=O)N1CCc2cc(S(=O)(=O)N(C)c3ccc(OC)cc3)ccc21	1.11	2.1
88	CCN1C(=O)c2ccccc2Sc2ccc(C(=O)NCCCN3CCOCC3)cc21	1.04	1.08
89	O=C(NCCc1ccccc1)c1cc(=O)[nH]c2ccc(S(=O)(=O)N3CCCC3)cc12	1.01	0.132
90	CC(C)(C)c1nnc(Nc2cc(Cl)ccc2Cl)[nH]c1=O	1.31	0.638
91	COc1cccc(C(=O)Nc2ccc(S(=O)(=O)Nc3cc(OC)nc(OC)n3)cc2)c1	1.31	2.96
92	CN(C(=O)Cc1c(C(=O)O)[nH]c2ccccc12)c1ccc(Br)cc1	1.13	0.495
93	COc1ccc(NC(=O)Cn2cc(S(=O)(=O)c3ccccc3)c(=O)c3cc(OC)ccc32)cc1	0.8	-2.88
94	CCCCNS(=O)(=O)c1ccc2c(c1)CCN2C(=O)CCC(=O)O	1.07	1.15
95	Cc1ccc(CCNC(=O)C2CCN(C(=O)c3cc4sccc4n3C)CC2)cc1	1.13	2.37
96	CC(NC(=O)c1ccccc1NC(=O)CN1C(=O)c2ccccc2S1(=O)=O)c1ccccc1 (stereo not drawn)	0.978	-0.574
97	CC(C)NCC(O)COc1c(F)cc(Br)cc1F (stereo not drawn)	1.28	2.07
98	CCCOc1ccc(-c2[nH]ncc2Oc2ccccc2)c(O)c1	0.789	-3.28
99	CCCNC(=O)c1cnn2c(C)c(Cc3c(C)cc(C)cc3C)c(C)nc12	1.03	0.735
100	O=C(Nc1nc(-c2ccc3ccccc3c2)cs1)c1ccccc1	1.13	2.17

5 of the entries above in order of the CBX7 AlphaScr z-score value, falling.
cpd	smiles	CBX7 AlphaScr z-score
95	Cc1ccc(CCNC(=O)C2CCN(C(=O)c3cc4sccc4n3C)CC2)cc1	2.37
100	O=C(Nc1nc(-c2ccc3ccccc3c2)cs1)c1ccccc1	2.17
97	CC(C)NCC(O)COc1c(F)cc(Br)cc1F (stereo not drawn)	2.07
92	CN(C(=O)Cc1c(C(=O)O)[nH]c2ccccc12)c1ccc(Br)cc1	0.495
98	CCCOc1ccc(-c2[nH]ncc2Oc2ccccc2)c(O)c1	-3.28

Further entries:
item	smiles	CBX7 AlphaScr	CBX7 AlphaScr z-score
101	CCOC(=O)N1CCc2c(sc(NCc3ccc(N(C)C)cc3)c2C(=O)Nc2cc(Cl)ccc2OC)C1	0.802	-10.3
102	CCN(CC)CCCNC(=O)C1CCN(C(=O)c2cnn(-c3ccccc3)c2-n2cccc2)CC1	0.92	-0.183
103	Cc1ccc2oc(-c3cccc(NC(=O)c4ccc(Cl)cc4)c3C)nc2c1	1.18	1.7
104	CCCOc1ccc(N2C(=O)CC(NCCc3ccc(S(N)(=O)=O)cc3)C2=O)cc1 (stereo not drawn)	1.16	1.43
105	COc1ccc(-c2nc3cc(C)ccn3c2NC(=O)c2cccc(C(F)(F)F)c2)cc1OC	1.14	1.33
106	O=C(NC1CCCCC1)C1CCN(S(=O)(=O)c2cnc[nH]2)CC1	1.05	1.88
107	COc1ccc(OC)c(NC(=O)c2c(NCc3cccnc3)sc3c2CCCCC3)c1	0.821	-4.79
108	Cc1ccccc1Cc1c(C)nc2c(C(=O)n3ccnc3)cnn2c1C	0.817	-1.72
109	CCCN1CCN(CCCNC(=O)CCn2nc(-c3ccccc3)ccc2=O)CC1	1.07	1.38
110	COc1ccc(-c2cc(C(=O)NCc3ccccc3)no2)cc1	1.02	0.0697
111	COc1cccc(-c2nc(-c3ccsc3)c(-c3ccccc3)[nH]2)c1	0.918	-0.0816
112	COc1ccc(NC(=O)C2CCCN(S(=O)(=O)c3c(C)noc3C)C2)cc1OC (stereo not drawn)	0.905	-0.792

This is a subset, so the mix of outcomes need not match the whole.
